Env fusion inh = blocks HIV Env-driven cell-cell fusion; HeLa-JRFL Env/CEM21 cell fusion, luciferase; inhibition, % at 12.3 µM; hit rate 1.1% among 360,000;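 active = mean replicate inhibition score of at least 50 and every replicate individually at or above 50; inconclusive = only one of the two criteria met; inactive = mean below 50 and not all replicates reaching 50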;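 also: 0% = plate neutral controls and 100% = maraviroc near 300 nM; one replicate is shown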
eIF4H inh = inhibitors of RNA binding by human eIF4H. Q15056. eIF4H fluorescence polarization binding assay. inhibition, % at 35 µM. hit rate 0.94% among 290,000. AID 2012;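 active = 50% or more with normal probe brightness, or confirmed in later tests; inconclusive = above 50% with abnormal brightness, or retests that disagree; inactive = below 50% or failed in later tests; about a fifth of its hits are not listed in these tables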;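 also: calls also rest on retests at 20 µM and on dose response follow-up; 0% = protein and probe with vehicle and 100% = probe without protein; strong numbers were not always called active; many hits fall short of the cut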
PABP polyA inh = PABP-poly(A) binding inhibition | P11940 | PABP-poly(A) RNA binding, fluorescence polarization | inhibition, % at 35 µM | hit rate 1% among 290,000 | AID 2014;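 active = 50% or more with normal probe brightness, or confirmed in later tests; inconclusive = above 50% with abnormal brightness, or retests that disagree; inactive = below 50% or failed in later tests; about a fifth of its hits are not listed in these tables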;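 also: calls also rest on retests at 20 µM and on dose response follow-up; controls were probe without protein and protein plus probe with vehicle; some compounds called inactive have numbers as strong as hits; many hits fall short of the cut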
Target sequence (P11940 whole entry, looked up): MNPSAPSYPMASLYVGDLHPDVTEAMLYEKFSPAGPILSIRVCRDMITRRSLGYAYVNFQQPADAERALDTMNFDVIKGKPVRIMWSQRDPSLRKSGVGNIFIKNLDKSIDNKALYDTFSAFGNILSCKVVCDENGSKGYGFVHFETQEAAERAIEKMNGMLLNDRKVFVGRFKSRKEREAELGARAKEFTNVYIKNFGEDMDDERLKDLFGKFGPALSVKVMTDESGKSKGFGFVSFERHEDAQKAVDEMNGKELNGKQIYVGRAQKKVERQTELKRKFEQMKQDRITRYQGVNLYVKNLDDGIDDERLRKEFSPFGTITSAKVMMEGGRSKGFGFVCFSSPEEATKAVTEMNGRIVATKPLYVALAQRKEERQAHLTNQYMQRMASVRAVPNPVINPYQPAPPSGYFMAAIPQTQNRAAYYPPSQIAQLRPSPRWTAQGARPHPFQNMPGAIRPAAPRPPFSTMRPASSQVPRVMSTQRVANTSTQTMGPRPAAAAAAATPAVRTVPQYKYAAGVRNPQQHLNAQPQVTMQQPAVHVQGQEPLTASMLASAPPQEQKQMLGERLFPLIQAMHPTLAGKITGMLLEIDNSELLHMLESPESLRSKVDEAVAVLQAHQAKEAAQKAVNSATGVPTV
Rce1 inh = inhibitors of yeast Ras-converting enzyme | Q03530 | calls only | yeast membranes, quenched prenylated peptide cleavage fluorescence | hit rate 0.27% among 290,000;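 active = fall in fluorescence gain of 50% or more versus controls, with final raw signal at or below 3038400; inconclusive = same 50% fall but final raw signal above 3038400; inactive = fall in fluorescence gain under 50%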;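 also: plate controls were neutral control wells for no effect and wells lacking membranes for full effect; tested at 10 µM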
CSC inhib = blocks cancer stem cells; cancer stem cell-like cells viability, luminescence; hit rate 1.1% among 300,000; inhibition, % at 7.5 µM;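 active = mean at 75% or more and at least half the replicates too; inconclusive = mean and replicates disagree; tested in HMLE shEcad cells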;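 also: 0% = median of negative and 100% = median of positive control wells; the first replicate is given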
UUG fidelity = alters start codon recognition fidelity in yeast | AID 602363 | S. cerevisiae UUG-firefly luciferase reporter, luminescence/redox ratio | activity score, % at 18.7 µM | hit rate 0.13% among 350,000;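 active = replicate mean at a twofold rise or more, about +100% in these data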;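 also: firefly luciferase made from a UUG start codon reports start codon fidelity; reporter light over untreated wells divided by growth signal over untreated wells; some hits fall short of that in this replicate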
MT1-MMP act inh = inhibitors of human MT1-MMP activation | P50281 | HT1080 RFP-PRO-GFP cells, GFP/RFP ratio fluorescence, overnight; percent of plate control window, DMSO zero | GFP/RFP ratio change, % at 20 µM | hit rate 0.061% among 360,000;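 active = GFP/RFP ratio change of at least 30% with cell ATP level not reduced by more than half and red fluorescence within 50% of control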; also: strong numbers were not always called active
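Assay system: RFP-PRO-GFP reporter HT1080 cells; read-out basis: GFP/RFP fluorescence ratio; benchmarks: DMSO wells and RFP-L50D-GFP cells; doses: 20 µM single dose, 1% DMSO; schedule: overnight cell settling, then overnight compound exposure, 37 °C, 5% CO2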
MT1-MMP act inh RFP = second read-out of MT1-MMP act inh, no call of its own (marks repeat the call); RFP signal change, %; measured here: RFP expression control read;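 0 = vehicle wells; hits needed this value within 50% of zero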
* hit, by the source's call; i = inactive; ? = inconclusive; / = no result given; & = joins results of further samples; [ ] = dose if it differs, or a comment.

item	SMILES	Env fusion inh	eIF4H inh	PABP polyA inh	Rce1 inh	CSC inhib	UUG fidelity	MT1-MMP act inh	MT1-MMP act inh RFP
1	COc1cccc(CNCc2ccc(SC)cc2)c1OC	/	10	-3	i	7	-6	1	1
2	NS(=O)(=O)c1ccc(NC(=S)NC(=O)c2ccc(-c3ccccc3)cc2)cc1	/	2	3	i	-6	-17	4	-1
3	CCOc1cc(C(C(=O)NCC2CCCO2)N(C(=O)Cn2nnc3ccccc32)c2cccc(OC)c2)ccc1O (configuration not stated)	-23	-4	-2	i	/	-4	-2	-4
4	COc1ccc(Nc2nc(C)nc3c2oc2ccccc23)cc1	24	-9	-1	i	-6	/	1	-2
5	Cc1nc(-c2cc(-c3nc(-c4ccc(C(F)(F)F)cc4)no3)no2)cs1	-1	0	7	/	23	-10	8	-3
6	COC(=O)c1cc2c(ccn2-c2ccc(F)cc2)n1CC(=O)OC(C)C	-4	1	0	i	9	/	0	-5
7	CC(C)NC(=O)Nc1ccc2c(c1)C(=O)N([C@H](C)CO)C[C@H](C)[C@@H](CN(C)S(=O)(=O)c1cn(C)cn1)O2	24[16.7 µM]	/	/	/	-22	11&-12	3	6
8	COc1cccc(-c2cc(C(=O)N3CCCCC3C)no2)c1 (configuration not stated)	-156	-6	4	i	-5	-12	0	2
9	Cc1[nH]c(=O)[nH]c(=O)c1S(=O)(=O)NCC12CC3CC(CC(C3)C1)C2	-25	-4	5	i	-2	-15	2	3
10	O=C(NCCOc1ccccc1)c1ccccc1F	-29	/	/	/	/	-28	1	3
11	COc1ccc(-c2cc(C)no2)cc1S(=O)(=O)NCc1cccc(C)c1	-45	2	2	i	12	-9	6	-2
12	CCc1ccc(-c2cc(C(=O)Nn3cnnc3)c3ccccc3n2)cc1	/	1	-1	i	41	/	3	3
13	COc1ccccc1NC(=O)c1ccccc1SCC(=O)N1CCCC1	-6	/	/	/	/	4	-1	-2
14	COc1ccc(N(CC(=O)N2CCc3ccccc32)S(=O)(=O)c2c(C)n[nH]c2C)cc1	-27	-2	3	i	-6	-4	10	2
15	Fc1ccccc1C(c1nnnn1Cc1ccc2c(c1)OCO2)N1CCN(Cc2ccco2)CC1 (configuration not stated)	-25	2	6	i	/	-5	0	2
16	Cc1c(Nc2nc(-c3cccc([N+](=O)[O-])c3)cs2)c(=O)n(-c2ccccc2)n1C	-7	4	-4	/	10	-10	0	-1
17	CC1CN=C2C(C(=O)Nc3ccccc3)=C(O)CC(c3ccccc3)N21 (configuration not stated)	-37	-1	-5	i	12	-2	-31	-33
18	O=c1cc(-c2ccccc2)c2ccc(O)cc2o1	14	/	/	i	6	/	-14	4
19	C=CCn1c(CNC(=O)c2ccccc2F)nnc1SCc1nc2ccccc2c(=O)[nH]1	-10	9	-4	i	-6	1	2	9
20	O=C(Nc1ccc2c(c1)CCC2)c1ccccc1F	-202	-14	-7	i	-3	/	-6	-3
21	COc1ccc(-c2cc(C)no2)cc1S(=O)(=O)N1CCN(c2ccccn2)CC1	-2	2	-1	i	-17	-13	0	-9
22	O=C(c1cnsn1)N1CCC(CO)(Cc2cccc(F)c2)CC1	-36	-2	-6	i	-13	-12	-1	2
23	Cc1sc2c(c1C)c(=O)n(-c1ccc(Cl)cc1)c(=O)n2Cc1cc(=O)n2ccccc2n1	-7	3	9	i	-12	-4	-5	-3
24	COc1ccc(OCC(=O)Nc2c(C(=O)N3CCC(N4CCCCC4)CC3)oc3ccccc23)cc1	-2	-4	-6	i	18	-13	-1	0
25	COc1cccc(CN(CC(=O)NCc2ccco2)C(=O)CNS(=O)(=O)c2ccccc2)c1	8	-3	6	i	-10	2	2	3
26	O=C(/C=C/c1ccccc1)NC(=S)Nc1ccccc1O	4	6	2	i	11	-14	0	0
27	Nc1ccccc1NC(=O)c1ccccc1N	17	-3	-1	?	-17	-10	4	6
28	O=C(O)CSc1nnc(CNc2cccc(C(F)(F)F)c2)n1Cc1ccco1	-37	6	9	i	16	-18	-3	8
29	C=CCNCCOc1ccccc1-c1ccccc1	/	-6	7	i	7	-13	8	3
30	O=C(Nc1nccs1)c1ccc(COc2c(F)c(F)cc(F)c2F)cc1	-3	3	-8	i	40	3	-2	-7
31	COc1ccccc1/C=N/NC(=O)c1ccccc1Cl	12	-5	27	/	-5	/	0	5
32	Cc1ccc2nc(Nc3ccccc3O)nc(-c3ccccc3)c2c1	/	6	9	i	5	-14	9	-3
33	CCOc1cc(CNc2ccc(OC)cc2)cc(Br)c1OCC(=O)NC(C)(C)C	/	-12	-10	i	17	9	-3	-6
34	C/C(=N/NC(=O)c1ccc(C(C)(C)C)cc1)c1ccccn1	-40	/	/	i	60	-32	16	-8
35	O=C(CSc1nnc(-c2cccc(S(=O)(=O)N3CCCCC3)c2)o1)c1ccc[nH]1	/	33	12	i	-4	-4	-5	1
36	CCCC(C)C(=O)Nc1cc(S(=O)(=O)N2CCCCC2)ccc1N1CCOCC1 (configuration not stated)	30	/	/	/	0	-4	2	3
37	Cc1c(NC(=O)C2(c3ccccc3)CCOCC2)c(=O)n(-c2ccccc2)n1C	-9	-1	-3	i	-7	3	/	/
38	CCOc1ccccc1Nc1ncccc1C(=O)N1CCCC1	/	5	4	i	/	-4	6	-8
39	CCN(CC)C(=O)[C@H]1CC(CC(=O)NCc2ccco2)C(=O)N2CCc3c([nH]c4ccc(OC)cc34)[C@]12C (some centres not stated)	-36	/	/	/	/	-4	1	3
40	COc1ccc(/C=C2\SC(=O)N(CC(=O)NCCC(C)C)C2=O)cc1OC	12	-10	2	i	-6	-23	5	-3
41	COc1ccc(/C(C)=N\NC(=O)C(c2ccncc2)N2CCOCC2)cc1 (configuration not stated)	10	4	5	i	-14	-15	1	0
42	Cc1ccc(NC2CCCN(C(=O)CCN3CCCCO3)C2)cc1C (configuration not stated)	-245	8	-4	i	-9	-5	-4	1
43	c1ccc(-c2noc(-c3cccc4ccccc34)n2)nc1	/	1	-12	i	14	-65	-6	0
44	Cc1ccc(C)c(OCC(=O)Nc2cc(C(=O)O)cc(C(=O)O)c2)c1	3	-7	-5	i	-9	/	1	4
45	CCOc1ccc(N=C2NC(=O)S/C2=C\c2ccc(N(C)C)cc2)cc1	-68	?	?	i	0	-25	-143	26
46	Oc1c(Br)cc(/C=N/n2c(-c3ccccc3)n[nH]c2=S)c(Br)c1O	/	85*	90*	i	106*	/	/	/
47	COCC(=O)N1CCC(Oc2ccc(C(=O)NCc3cc(C)no3)cc2)CC1	-7	4	1	i	-3	-6	-3	2
48	CC(C)CN(C(=O)CN1CCOCC1)c1c(N)n(CC(C)C)c(=O)[nH]c1=O	-5	22	6	i	-14	-12	0	0
49	O=C(NCC(c1cccs1)N1CCOCC1)c1ccc(Cl)cc1 (configuration not stated)	3	/	/	i	-7	-6	-10	-10
50	O=C(/C=C/c1ccco1)Nc1scc(-c2ccccc2)c1C(=O)O	-10	79*	67*	i	29	13	-6	-2
51	CCOC(=O)C1=C(O)C(=O)N(Cc2cccnc2)C1c1ccc(OC)cc1 (configuration not stated)	6	5	5	i	-8	/	1	-3
52	Cn1c(N)c(C(=O)COC(=O)CN2C(=O)c3ccccc3C2=O)c(=O)n(C)c1=O	0	15	-5	i	/	/	-1	1
53	Cc1ccc(NC(=O)c2cc(C(C)(C)C)nn2Cc2ccccc2)cc1	10	4	-1	i	/	/	-5	-12
54	CSc1cccc(NC(=O)C(C)C)c1	-13	4	-2	i	3	/	-8	3
55	COc1ccc(N(C(=O)CNC(=O)c2ccco2)C(C(=O)NC2CCCC2)c2ccc(C)o2)cc1 (configuration not stated)	-7	6	0	i	-36	-10	0	2
56	CN1CCN(C(=O)c2ccc(CN3CCOCC3)cc2)CC1	-29	3	0	i	-9	5	1	7
57	Nc1ncc(Br)cc1S(=O)(=O)NCCC(=O)N1CCN(c2ccccc2)CC1	12	/	/	i	-2	-1	2	1
58	O=C(NCc1cc(C(F)(F)F)cc(C(F)(F)F)c1)C1CC(c2c(Cl)cccc2Cl)=NO1 (configuration not stated)	23	5	-2	i	40	-12	-10	-12
59	CC(C)C(=O)NC(NC(=S)Nc1cccc2cccnc12)C(Cl)(Cl)Cl (configuration not stated)	-8	-9	-1	i	/	-26	0	5
60	Cc1ccc(S(=O)(=O)N2CCN(C(=O)CSC(=S)N3CCCC3)CC2)c(C)c1	-23	/	/	/	/	19	2	-5

Remaining list, next part.
item	SMILES	Env fusion inh	eIF4H inh	PABP polyA inh	Rce1 inh	CSC inhib	UUG fidelity	MT1-MMP act inh	MT1-MMP act inh RFP
61	O=C(N/N=C1\CCSc2ccc(F)cc21)c1cccnc1	1	-14	10	i	3	/	1	2
62	COc1ccc(Cc2nnc(Nc3ccc(C)cc3C)[nH]c2=O)cc1	-52	-1	-7	/	-3	-18	0	7
63	O=C(CSc1nc2ccccc2c(=O)[nH]1)Nc1ccc(Br)cc1	13	10	4	i	-5	-17	5	3
64	CC1=CC=CN2C1=NC(=O)CC2(C)C(=O)N(CC(=O)NC1CCCC1)Cc1ccccc1 (configuration not stated)	-1	-3	-3	i	-10	-20	-3	-2
65	O=C(Cn1ncc(Cl)c(Cl)c1=O)Nc1ccc2c(c1)OCO2	-1	/	/	/	/	-4	-5	-5
66	Cc1nn(-c2ncc(C(F)(F)F)cc2Cl)c(=O)n1-c1ccccc1Cl	-12	-13	6	i	/	0	4	6
67	COC1OC2COC(c3ccccc3)OC2C2OC12 (configuration not stated)	-24	/	/	/	/	-12	-4	2
68	C#CCOc1ccccc1CNC1CCN(Cc2ccccc2)CC1	5	16	22	i	49	-4	2	-2
69	CCCCCCN1C(=O)CC(NC(=O)OCC2c3ccccc3-c3ccccc32)C/C=C\C1C(C)C (configuration not stated)	12	/	/	/	/	-12	-3	0
70	Cn1c(=O)c2c(SCc3cccc(C(F)(F)F)c3)nc(-c3ccco3)nc2n(C)c1=O	-11	-7	-4	/	13	-36	-1	-3
71	O=C(CCN1CCCCC1=O)NC1CCCc2c1cnn2-c1ccccc1F (configuration not stated)	-2	-12	-1	i	11	-7	4	3
72	CCOC(=O)c1c(C)nc2c(c1-c1cc(OC)c(OC)c(OC)c1)C(=O)c1ccccc1-2	-13	7	-12	i	2	-14	-1	1
73	O=C(Nc1ccccn1)NC12CC3CC(CC(C3)C1)C2	/	-2	1	i	1	-20	3	-4
74	Cc1nc(N)nc(Cl)c1Cc1ccc(Cl)cc1	20	-4	0	i	-10	/	-4	-1
75	Nc1ccc2c3c(cccc13)C(=O)N(c1ccccc1)C2=O	22	?	3	i	/	/	-122	-1

Values in list order from the entries so far.
Entries 65–75 in Rce1 inh: /, i, /, i, /, /, i, i, i, i, i

Remaining list, next part:
item	SMILES	Env fusion inh	eIF4H inh	PABP polyA inh	Rce1 inh	CSC inhib	UUG fidelity	MT1-MMP act inh	MT1-MMP act inh RFP
76	Cc1ccc(CN(C)CC(=O)Nc2ccc3c(c2)CCC3)cc1	2	-14	?	i	-10	-2	1	2
77	N=c1n(-c2ccccc2)c(O)cc(=O)n1-c1ccccc1	-23	-3	0	i	4	-16	1	5
78	COc1cc(SC)ccc1C(=O)N1CCN(c2ccccc2)CC1	4	-4	-3	i	3	/	0	-3
79	CC(=O)Nc1ccc(NC(=O)COC(=O)c2ccccn2)cc1	6	-1	-12	i	3	-11	1	3
80	COc1ccc(S(=O)(=O)Nc2ccccc2OC)cc1NC(=O)Cc1cccs1	17	6	-5	i	5	-10	-2	-6
